Env fusion inh – inhibitors of HIV Env-mediated cell fusion; HeLa-JRFL Env/CEM21 cell fusion, luciferase; inhibition, % at 12.3 µM; actives 1.1% (n = 360,000);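 active = mean replicate inhibition score of at least 50 and every replicate individually at or above 50; inconclusive = only one of the two criteria met; inactive = mean below 50 and not all replicates reaching 50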;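 also: 0% = plate neutral controls and 100% = maraviroc near 300 nM; one replicate is shown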
PABP polyA inh – PABP-poly(A) binding inhibition; P11940; PABP-poly(A) RNA binding, fluorescence polarization; inhibition, % at 35 µM; actives 1% (n = 290,000);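 active = 50% or more with normal probe brightness, or confirmed in later tests; inconclusive = above 50% with abnormal brightness, or retests that disagree; inactive = below 50% or failed in later tests; about a fifth of its hits are not listed in these tables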;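 also: calls also rest on retests at 20 µM and on dose response follow-up; controls were probe without protein and protein plus probe with vehicle; some compounds called inactive have numbers as strong as hits; many hits fall short of the cut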
Target sequence (P11940 whole entry, looked up): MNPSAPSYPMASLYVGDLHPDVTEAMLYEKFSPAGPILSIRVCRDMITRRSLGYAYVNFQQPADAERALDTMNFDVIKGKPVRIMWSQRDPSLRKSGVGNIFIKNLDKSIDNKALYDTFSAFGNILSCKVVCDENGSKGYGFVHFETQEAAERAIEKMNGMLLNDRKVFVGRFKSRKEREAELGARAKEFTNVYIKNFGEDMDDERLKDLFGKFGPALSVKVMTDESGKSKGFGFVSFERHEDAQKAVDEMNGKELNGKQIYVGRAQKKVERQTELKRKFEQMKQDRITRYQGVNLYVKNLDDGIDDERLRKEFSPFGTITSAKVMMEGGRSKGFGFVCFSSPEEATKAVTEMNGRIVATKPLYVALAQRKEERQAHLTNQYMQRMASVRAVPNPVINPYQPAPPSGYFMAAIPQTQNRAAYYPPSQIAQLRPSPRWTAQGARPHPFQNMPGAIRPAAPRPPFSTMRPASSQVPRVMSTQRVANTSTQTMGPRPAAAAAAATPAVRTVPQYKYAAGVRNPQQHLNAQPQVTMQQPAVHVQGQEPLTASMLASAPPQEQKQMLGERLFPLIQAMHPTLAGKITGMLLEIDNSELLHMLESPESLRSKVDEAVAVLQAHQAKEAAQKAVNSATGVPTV
MT1-MMP act inh – inhibitors of human MT1-MMP activation | GFP/RFP ratio change, % at 20 µM | HT1080 RFP-PRO-GFP cells, GFP/RFP ratio fluorescence, overnight; percent of plate control window, DMSO zero | P50281 | actives 0.061% (n = 360,000);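 active = GFP/RFP ratio change of at least 30% with cell ATP level not reduced by more than half and red fluorescence within 50% of control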; also: strong numbers were not always called active
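Assay system: HT1080 cells carrying an RFP-PRO-GFP reporter | Dosing: Single dose of 20 µM compound, 1% DMSO final | Incubation: Cells overnight before dosing, compound overnight, 37 °C, 5% CO2 | Evaluation: GFP/RFP fluorescence ratio | Control set: DMSO and RFP-L50D-GFP cell wells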
Rce1 inhib – yeast Ras-converting enzyme inhibition; Q03530; AID 2563; calls only; actives 0.27% (n = 290,000); yeast membranes, quenched prenylated peptide cleavage fluorescence;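 active = fall in fluorescence gain of 50% or more versus controls, with final raw signal at or below 3038400; inconclusive = same 50% fall but final raw signal above 3038400; inactive = fall in fluorescence gain under 50%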;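 also: plate controls were neutral control wells for no effect and wells lacking membranes for full effect; tested at 10 µM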
Target sequence (Q03530 whole entry, looked up): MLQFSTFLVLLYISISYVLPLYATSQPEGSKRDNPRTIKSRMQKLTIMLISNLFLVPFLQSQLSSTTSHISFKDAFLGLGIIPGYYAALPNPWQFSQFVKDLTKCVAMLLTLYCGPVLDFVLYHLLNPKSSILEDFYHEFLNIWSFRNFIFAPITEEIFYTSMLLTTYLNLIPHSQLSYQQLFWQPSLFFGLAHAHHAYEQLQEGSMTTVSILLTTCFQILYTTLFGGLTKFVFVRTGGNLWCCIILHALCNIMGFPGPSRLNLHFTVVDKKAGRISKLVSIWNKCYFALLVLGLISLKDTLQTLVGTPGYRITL
CSC inhib – cancer stem cell inhibition. inhibition, % at 7.5 µM. actives 1.1% (n = 300,000). cancer stem cell-like cells viability, luminescence. AID 2717;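 active = mean at 75% or more and at least half the replicates too; inconclusive = mean and replicates disagree; tested in HMLE shEcad cells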;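 also: 0% = median of negative and 100% = median of positive control wells; the first replicate is given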
eIF4H FP inh – inhibitors of RNA binding by human eIF4H; AID 2012; eIF4H fluorescence polarization binding assay; inhibition, % at 35 µM; Q15056; actives 0.94% (n = 290,000);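 active = 50% or more with normal probe brightness, or confirmed in later tests; inconclusive = above 50% with abnormal brightness, or retests that disagree; inactive = below 50% or failed in later tests; about a fifth of its hits are not listed in these tables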;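 also: calls also rest on retests at 20 µM and on dose response follow-up; 0% = protein and probe with vehicle and 100% = probe without protein; strong numbers were not always called active; many hits fall short of the cut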
UUG fidelity – modulators of start codon recognition fidelity in yeast; actives 0.13% (n = 350,000); S. cerevisiae UUG-firefly luciferase reporter, luminescence/redox ratio; activity score, % at 18.7 µM;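 active = replicate mean at a twofold rise or more, about +100% in these data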;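 also: firefly luciferase made from a UUG start codon reports start codon fidelity; reporter light over untreated wells divided by growth signal over untreated wells; some hits fall short of that in this replicate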
eIF4H FP inh retest – recorded beside eIF4H FP inh, whose call it bears; inhibition, %; compound at 20 µM; confirmation average;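 mean of two retest wells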
PABP polyA inh retest – recorded beside PABP polyA inh, whose call it bears; inhibition, %; compound at 20 µM; confirmation repeats;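 mean of two retest wells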
MT1-MMP act inh RFP – further read-out of MT1-MMP act inh, marked with its call; RFP signal change, %; measured here: RFP expression control read;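 0 = vehicle wells; hits needed this value within 50% of zero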
Active calls of the source: *; i = inactive; ? = inconclusive; . = no result given; & = joins results of further samples.

SMILES	Env fusion inh	PABP polyA inh	MT1-MMP act inh	MT1-MMP act inh RFP	Rce1 inhib	CSC inhib	eIF4H FP inh	UUG fidelity	others
Cc1cc(C(=O)CCC(=O)NC(C)c2ccc(S(N)(=O)=O)cc2)c(C)s1 (centres undefined)	-4	.	0	0	i	-9	.	-16
c1ccc(C[n+]2ccc3ccccc3c2)cc1	-9	.	-1	-1	i	2	.	.
CC(=O)Nc1ccc(SCC(=O)Nc2ccc3c(c2)OCCO3)cc1	-16	.	-2	-1	.	-9	.	-11
O=C(CSc1ccc2nnc(-c3ccccc3)n2n1)N1CCCCC1	2	.	0	1	i	-11	.	.
COC(=O)c1c(C(=O)OC)c(-c2ccccc2)n2c1CCC2	.	-3	-3	-4	i	-9	6	6
Cc1ccc2cc(CN(Cc3ccco3)C(=O)c3cccs3)c(=O)[nH]c2c1	.	10	-16	-16	i	57	5	-4
O=C(CSCc1nc2ccccc2[nH]1)Nc1ccc(Oc2ccccc2)cc1	18	-12	1	-5	i	34	-10	.
Cc1cc(CNC(=O)CC2C(=O)NCCN2Cc2ccccc2)nn1C (centres undefined)	-10	13	-1	-1	i	-6	47	-9
Cc1nc(NCc2ccccc2)[nH]c(=O)c1CCC(C)C	-44	12	5	4	i	-8	-13	-8
CCn1c(SCC(=O)N/N=C\c2ccccc2OCC(=O)O)nnc1-c1ccc(Cl)cc1	-15	14	2	0	i	-12	4	-20
Cc1ccc(C2CC(=O)c3cnc(NC(=O)c4ccco4)nc3C2)cc1 (centres undefined)	.	5	-2	-4	i	.	-4	12
O=C(OCC(=O)c1ccccc1Cl)c1cnccn1	-15	-4	0	4	i	-1	-1	-12
CCOc1ccc(OCC(=O)OC(C)C(=O)NC2CCCCC2C)cc1 (centres undefined)	4	.	-2	4	.	.	.	3
COCCOC(=O)c1c(C)oc2ccc(OC(=O)COc3c(F)c(F)c(F)c(F)c3F)cc12	-272	4	0	-2	i	9	-3	-11
COc1ccc(CNC2CCCCC2)cc1	?	13	1	8	i	.	-1	-2
CSc1ccc(S(=O)(=O)N2CCC(C(=O)Nc3ccc(NC(C)=O)cc3)CC2)cc1	-10	4	1	-3	i	10	-9	-7
COC(=O)C1CCN(C(=O)CCC2CCCCC2)CC1	.	-2	-1	2	i	-5	-7	-9
COc1ccc(C(=O)/C=C2/c3ccccc3CC(C)(C)N2C)cc1OC	-49	12	-2	-2	i	5	-11	-18
Cc1cc(C)nc(NC(=O)NS(=O)(=O)Nc2ccc(Br)cn2)n1	.	5	10	8	.	-9	-2	-14
CCc1nc2ccc(C(=O)Nc3ccc(OC)c(OC)c3)cn2c1N(CC)CCOC	5	.	-1	1	.	.	.	-1
CNc1nnc(-c2ccco2)s1	-11	-3	0	2	i	-15	5	.
Cc1ccc(NS(=O)(=O)c2ccc(-n3cccn3)cc2)c(Cl)c1	13	.	1	-2	.	.	.	-17
Cc1ccc(C2=NC(C)(C)NC2=O)cc1	-7	6	-1	4	.	10	-8	-10
Cc1cc(NC(=O)CSc2nnnn2-c2ccccc2)no1	-1	-7	-6	-15	i	-13	-3	.
COc1ccc(NC(=O)c2ccc3ccccc3c2)cc1	-277	1	-4	0	i	4	10	-32
O=C(CSCc1ccc(F)cc1)NCc1cccs1	7	-6	3	1	i	-10	6	.
CCOC(=O)c1sc(Nc2nc3c(OC)cccc3s2)cc1C	-30	-21	2	-9	i	64	2	.
COc1cc(CN(C(=O)c2ccco2)C2CCS(=O)(=O)C2)cc(OC)c1OC (centres undefined)	4	-4	1	2	i	.	-12	1
O=C(NC1CCCCC1)C1CCCN(c2nnnn2-c2ccccc2)C1 (centres undefined)	10	-7	-5	-4	i	-6	-10	.
CCn1c(COc2ccc(Cl)c(C)c2)nnc1SCC(=O)N1CCCC1	0	5	-1	-1	i	-12	-3	2
S=C1NCCOCCOCCOCCNC(=S)N2CCOCCOCCN1CCOCCOCC2	-1	-17	-3	2	i	-5	-5	.
Cc1cc(C(=O)c2ccc(C(C)(C)C)cc2)c(NC(=O)CCl)s1	31	-3	-10	-6	i	50	-4	-7
CCCN1CCC(NC(=O)Cc2cccc(C)c2)CC1	-1	1	0	1	i	-9	1	-2
Cc1ccc(-c2nnc(N3CCN(CCO)CC3)c3ccccc23)cc1	-1	-3	0	0	i	-17	-11	0
CCOC(=O)N1CCN(C(=S)NC(=O)c2nn(C)cc2Br)CC1	-18	-2	-1	5	i	.	1	-24
COc1ccc(C/C(C)=N/NC(=O)c2ccc(Cl)cc2)cc1	-12	9	-1	-1	i	-14	-1	.
N=C1c2c(cc(=O)n3c2[nH]c2ccccc23)CN1CCN1CCOCC1	1	-11	-13	10	?	-7	51	-25	eIF4H FP inh retest=-3;PABP polyA inh retest=3
Cc1noc(NS(=O)(=O)c2ccc(NC(=O)/C=C/c3ccc(Br)cc3)cc2)c1C	0	-10	1	1	i	11	-12	-16
O=C(NCCc1ccccc1)C1CCN(S(=O)(=O)c2ccc(-n3cnnn3)cc2)CC1	.	-1	-1	3	i	.	-1	.
O=C(OCCc1ccccc1)c1cc(O)c(O)c(O)c1	-281	.	4	-13	i	35	.	-30
CC(=O)c1cccc(NC(=O)C(C)OC(=O)c2cc(=O)[nH]c3ccccc23)c1 (centres undefined)	-2	.	-1	-1	i	-11	.	-7
Fc1c(F)c(F)c(NC2=NCCCCC2)c(F)c1F	-11	-8	2	2	i	-12	-16	-3
Cc1nnc(SCC(=O)Nc2c(Cl)cccc2Cl)[nH]c1=O	-38	-15	0	1	i	-13	-7	-21
O=C1CC2(CCCC2)C(=O)N1c1ccc(S(=O)(=O)NCC2CC2)cc1Cl	1	-7	4	0	i	-1	2	15
Cc1cccc2c(=O)oc(-c3ccccc3Cl)nc12	-7	5	-1	5	i	-10	3	-20
CCC(C)OC1OC(CO)C(O)C(O)C1NC(C)=O (centres undefined)	5	-2	-2	-1	i	-7	0	.
Cc1ccc(C(=O)Oc2ccccc2N2C(=O)C3CCC(C)CC3C2=O)cc1 (centres undefined)	-32	-2	-7	-8	i	-12	3	-10
Cc1ccc(C)c(N(CC(N)=O)S(C)(=O)=O)c1	.	-13	-5	4	i	-2	-6	6
CCOC(=O)NC(NC(=S)Nc1ccc(OCC)cc1)C(Cl)(Cl)Cl (centres undefined)	.	3	24	1	i	-5	1	.
O=C([C@H]1O[C@@H](n2ccc(=O)[nH]c2=O)[C@H](O)[C@@H]1O)N1CCSC1	-11	.	3	4	.	.	.	7
c1ccc(-c2noc(C34CC5CC(CC(C5)C3)C4)n2)nc1	.	-8	-19	-5	i	58	-2	-20
CN(C)c1ccc(C(=O)/C=C/c2cccnc2)cc1	-18	-5	-4	-8	i	11	-3	-19
O=C(CC(=O)c1ccccc1)CC(O)(C=Cc1ccccc1)c1ccccc1 (centres undefined)	6	.	2	-8	.	.	.	-5
Oc1c(Br)cc(Br)cc1/C=N/N1CCN(Cc2ccccc2)CC1	7	4	0	-3	.	27	-1	.
CC(C)(C)NC(=O)[C@@H]1C[C@@H]2CCCC[C@@H]2CN1C[C@@H](O)[C@H](Cc1ccccc1)NC(=O)[C@H](CC(N)=O)NC(=O)c1ccc2ccccc2n1	-206&-150	4	2&-1	-7&-5	i	-1&15	1	-8&17
CCCC(=O)c1c(NC(C)C)cc(C)oc1=O	14	11	.	.	i	-5	6	-2
O=C(NC1CCCCC1)C(c1cccnc1)N(C(=O)c1csnn1)c1ccc(F)cc1 (centres undefined)	15	4	2	2	i	-9	-8	-13
N#C/C(=C/c1ccncc1)c1nc2ccccc2s1	-3	?	-92	7	i	49	?	.
COc1ccc(S(=O)(=O)N(Cc2ccc(OC)c(OC)c2)Cc2ccco2)cc1	.	0	-5	-18	i	-4	7	-4
COc1ccc(-c2sc3ccccc3c2C#Cc2cncn2C)cc1	7	.	-6	-8	.	138*	.	-14

Part of the list above in order of molecular weight, lowest first:
SMILES	Env fusion inh	PABP polyA inh	MT1-MMP act inh	MT1-MMP act inh RFP	Rce1 inhib	CSC inhib	eIF4H FP inh	UUG fidelity	others
CCCC(=O)c1c(NC(C)C)cc(C)oc1=O	14	11	.	.	i	-5	6	-2
COc1ccc(-c2sc3ccccc3c2C#Cc2cncn2C)cc1	7	.	-6	-8	.	138*	.	-14
O=C(NC1CCCCC1)C(c1cccnc1)N(C(=O)c1csnn1)c1ccc(F)cc1 (centres undefined)	15	4	2	2	i	-9	-8	-13

(cont.)
SMILES	Env fusion inh	PABP polyA inh	MT1-MMP act inh	MT1-MMP act inh RFP	Rce1 inhib	CSC inhib	eIF4H FP inh	UUG fidelity	others
CC1CCC/C(=N\NC(=O)COc2ccc(Cl)cc2Cl)C1 (centres undefined)	-61	-5	2	2	i	.	-5	-11
COc1ccc(Cl)cc1NS(=O)(=O)c1cc(Cl)ccc1OC	-55	1	4	5	i	2	3	-10
Cc1c2n(c3ccccc13)CC/C2=N\O	20	-14	2	1	i	-12	-15	5
O=c1[nH]c2ccc(S(=O)(=O)Nc3ccccc3O)cc2[nH]1	8	4	-11	10	i	-11	23	-16
COc1ccc(S(=O)(=O)N2CCN(Cc3cccc(OC)c3OC)CC2)cc1	-11	0	1	2	i	-2	-7	-1
CC1Cc2ccccc2N1S(=O)(=O)c1cccc(C(=O)NCc2ccncc2)c1 (centres undefined)	.	.	-10	-22	.	-4	.	-14
Cc1cc2ncn(C3CC(=O)N(C)C3=O)c2cc1C (centres undefined)	-54	-2	-2	2	i	-11	2	-14
CC1(C)CC(=O)c2cnc(NCC3CCCO3)nc2C1 (centres undefined)	.	8	1	1	i	-10	1	-11
O=C(COC(=O)c1ccc(NS(=O)(=O)c2cccs2)cc1O)NCc1ccccc1	-64	0	-9	-16	i	50	5	-16
CCOC(=O)c1cnc2scnn2c1=O	.	6	5	5	i	.	3	1
CCCc1cc2c(=O)c(-c3ccccn3)c(C)oc2cc1O	.	-10	7	3	i	-8	-9	1

Compounds shown so far that have an aryl methoxy group (11):
SMILES	Env fusion inh	PABP polyA inh	MT1-MMP act inh	MT1-MMP act inh RFP	Rce1 inhib	CSC inhib	eIF4H FP inh	UUG fidelity	others
COc1ccc(CNC2CCCCC2)cc1	?	13	1	8	i	.	-1	-2
COc1ccc(C(=O)/C=C2/c3ccccc3CC(C)(C)N2C)cc1OC	-49	12	-2	-2	i	5	-11	-18
CCc1nc2ccc(C(=O)Nc3ccc(OC)c(OC)c3)cn2c1N(CC)CCOC	5	.	-1	1	.	.	.	-1
COc1ccc(NC(=O)c2ccc3ccccc3c2)cc1	-277	1	-4	0	i	4	10	-32
CCOC(=O)c1sc(Nc2nc3c(OC)cccc3s2)cc1C	-30	-21	2	-9	i	64	2	.
COc1cc(CN(C(=O)c2ccco2)C2CCS(=O)(=O)C2)cc(OC)c1OC (centres undefined)	4	-4	1	2	i	.	-12	1
COc1ccc(C/C(C)=N/NC(=O)c2ccc(Cl)cc2)cc1	-12	9	-1	-1	i	-14	-1	.
COc1ccc(S(=O)(=O)N(Cc2ccc(OC)c(OC)c2)Cc2ccco2)cc1	.	0	-5	-18	i	-4	7	-4
COc1ccc(-c2sc3ccccc3c2C#Cc2cncn2C)cc1	7	.	-6	-8	.	138*	.	-14
COc1ccc(Cl)cc1NS(=O)(=O)c1cc(Cl)ccc1OC	-55	1	4	5	i	2	3	-10
COc1ccc(S(=O)(=O)N2CCN(Cc3cccc(OC)c3OC)CC2)cc1	-11	0	1	2	i	-2	-7	-1

These rows are one share of the data; rates above refer to the full screens.
